gsp agonist = activates gsp, the McCune-Albright syndrome mutation; gsp mutant cells, cAMP HTRF, 30 min; control for the full effect not named in the record; Potency, µM (titrated, usually from 76.9 µM), for the others: at the highest dose activation (cAMP increase), usual class: activators; 0.13% of 340,000 active; AID 624287; active = well fitted activation curve with a large enough effect; inconclusive = small, poorly fitted or top-dose-only effect, or another doubt; inactive = no such curve, though single readings can be large or run the other way; cell line not stated here;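 note: phosphodiesterase inhibitor Ro 20-1724 added with compounds to block cAMP breakdown; potency is the fitted concentration of half-maximal effect; nearly all actives have a fitted effect of over 60% in size; about a fifth of the inactives were tested at one dose only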
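Cells in DMEM/10% FBS with G418 were pretreated with compounds in DMSO plus […] (300 uM stock) for 30 min at 37C. cAMP was measured by HTRF (cAMP-d2 plus anti-cAMP antibody-K) after 30 min at room temperature.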
TRPML1 inh = inhibitors of human TRPML1 channel. TRPML1-inducible cells, Ca2+ dye fluorescence, FDSS; hits give low values; inhibition of EC80 agonist-evoked calcium signal. activity change, negative = inhibition, % (no concentration beside the values). AID 624415. 0.02% of 390,000 active. Q9GZU1; in the data active means activity change below about -50%; inconclusive means about -30% to -50%; inactive means above about -30%;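 note: stimulus is agonist 54-4 at its EC80 concentration; % is set by controls: 0 for no effect and ±100 for the full control effect; compound concentration not given in the record; the text of the record puts the active cut at -80%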
Target sequence (Q9GZU1 whole entry, looked up): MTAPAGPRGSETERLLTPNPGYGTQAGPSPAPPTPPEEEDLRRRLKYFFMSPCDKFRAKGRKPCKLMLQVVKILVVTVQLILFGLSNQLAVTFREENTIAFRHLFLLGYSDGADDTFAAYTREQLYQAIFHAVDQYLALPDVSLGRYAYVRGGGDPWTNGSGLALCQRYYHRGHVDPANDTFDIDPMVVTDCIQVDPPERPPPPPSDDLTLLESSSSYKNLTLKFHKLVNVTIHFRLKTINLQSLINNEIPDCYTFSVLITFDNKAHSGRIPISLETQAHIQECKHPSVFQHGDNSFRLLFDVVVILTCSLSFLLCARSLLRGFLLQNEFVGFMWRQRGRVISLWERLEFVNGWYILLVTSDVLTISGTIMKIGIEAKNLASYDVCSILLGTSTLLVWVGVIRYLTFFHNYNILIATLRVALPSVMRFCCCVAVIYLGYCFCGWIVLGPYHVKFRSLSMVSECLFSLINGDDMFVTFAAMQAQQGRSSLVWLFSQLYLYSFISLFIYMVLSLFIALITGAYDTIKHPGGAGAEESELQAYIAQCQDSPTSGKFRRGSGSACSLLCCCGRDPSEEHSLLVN
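Tet-induced TRPML1-DL cells loaded with Ca8 no-wash calcium dye were read kinetically on FDSS. Compound addition was followed by EC80 agonist 54-4 (4 uM final); inhibition was read over 110 s.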
gsp antag = gsp mutant antagonism. 0.4% of 340,000 active. gsp-mutant cells, cAMP HTRF, 30 min; control for the full effect not named in the record. Potency, µM (titrated, usually from 76.9 µM), inactives show top-dose activity change, negative = inhibition, usual class: inhibitors; active = falling curve of any shape with a large fitted effect; inconclusive = falling curve, mostly with a smaller effect; inactive = flat or rising curve; cell line not stated here;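 note: intracellular cAMP measured with PDE inhibitor Ro 20-1724 present during compound exposure; potency is the fitted concentration of half-maximal effect; % is set by controls: 0 for no effect and ±100 for the full control effect; nearly all actives have a fitted effect of over 65% in size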
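Measurement of cellular cAMP by homogeneous time-resolved fluorescence following a 30 min compound exposure at 37C. The PDE inhibitor […] was present throughout; the assay buffer was DPBS with 0.05% BSA and 0.005% Tween 20.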
Menin MLL FP FL = menin-MLL binding inhibition, fluorescein peptide | 290,000 tested, under 10 active | Fluorescence polarization, fluorescein-MLL peptide displacement from menin | FP activity change, % at 61.4 µM; inconclusive = falling polarisation curve, or a change in total fluorescence; inactive = total fluorescence flat and polarisation flat or rising; no compound was filed as active; the % refers to the polarisation; negative = inhibition;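 note: % of control where 0% means no effect; inhibitors lower the polarisation; unlabelled MLL peptide was the positive control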
ClpP mod = qHTS Assay for Activators of ClpP | purified B. subtilis ClpP, FRET peptide cleavage, 20 min | 1.9% of 340,000 active | AID 651965, 2013 | Potency, µM (doses to about 57.5 µM), for the others: top-dose activity change, negative = active; active = well fitted falling curve with a large enough effect; inconclusive = small, poorly fitted or top-dose-only effect; inactive = no such curve, though single readings can be large or run the other way; note: potency is the fitted concentration of half-maximal effect; the source files actives as falling curves though it sought activators and does not explain the sign; nearly all actives have a fitted effect of over 65% in size; many hits overshoot -100%
Target sequence (P80244 whole entry, looked up): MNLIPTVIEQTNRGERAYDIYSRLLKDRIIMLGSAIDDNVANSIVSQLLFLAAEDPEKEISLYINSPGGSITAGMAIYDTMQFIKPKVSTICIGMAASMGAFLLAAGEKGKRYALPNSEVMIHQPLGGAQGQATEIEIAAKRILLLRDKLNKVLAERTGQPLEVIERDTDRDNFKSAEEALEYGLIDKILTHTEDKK
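FRET quenching reversal measured ClpP activation: 10 microg/mL B. subtilis ClpP at pH 8 with the FRET-FV decapeptide, read at 430 nm after 320 nm excitation. The 20-min minus 0-min signal was scaled between DMSO/no-enzyme wells and ADEP (5.8 microM final).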
TRPML1 ag = human mucolipin-1 channel agonism; Q9GZU1; TRPML1-expressing cells, Ca2+ dye fluorescence, FDSS; host cell line not named in the record; reference of the full effect not given here; activation, % (test concentration not listed); 0.12% of 410,000 active; AID 624414; in the data active = activation above about 50%; inconclusive = about 30% to 50%; inactive = below about 30%; note: 0% is about no effect; the text of the record puts the active cut at 80%
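Tet-induced TRPML1-DL cells, 1,500 per well, cultured overnight, were loaded with a no-wash Ca2+ dye for 45–90 min. Calcium fluorescence was recorded on the FDSS for 110 s after compound addition, before the EC80 agonist (4 uM 54-4) was added.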
* marks the source's active call; other numbers are inactive results; ? = inconclusive; . = no result given; & = joins results of further samples; [ ] = remark or other dose.

SMILES | gsp agonist | TRPML1 inh | gsp antag | Menin MLL FP FL | ClpP mod | TRPML1 ag
Cc1cc(C)nc(NS(=O)(=O)c2ccc(NC(=O)Nc3ccccc3F)cc2)n1 | -11.0% | -14.0 | -13.3% | -2.0 | 2.3% | 3.7
O=C(Nc1ccc2c(c1)OCO2)c1cccs1 | 0.6% | -9.0 | 7.1% | 4.4 | -2.2% | 0.1
O=c1nc(-c2ccccc2)c2ccccc2[nH]1 | 1.0% | -5.3 | 8.0% | -3.8 | ? | -0.3
COc1ccccc1-n1c(=S)[nH]c2c(sc(=S)n2-c2ccc(C)cc2C)c1=O | 1.4% | -10.3 | -8.5% | -3.8 | -2.1% | 0.5
CC1(C)COC(c2coc3ccccc3c2=O)OC1 | 13.0% | -4.4 | -6.1% | -0.2 | -4.2% | -0.1
CCNC(=O)N1CCCC(C(=O)c2ccc(C(F)(F)F)cc2)C1 (configuration not stated) | -35.1%[inhibitor] | 33.7 | 8.9% | -2.2 | 0.0% | 0.6
Cc1ccc(-n2nc(C)c3c(C)c(CCC(=O)NC(C)c4ccccc4)c(C)nc32)cc1 (configuration not stated) | ? | 32.9&-10.9 | 26.1% | 1.9 | -24.1%&4.5% | -0.5&-1.2
COc1ccc(CN(C)Cc2nc(Cc3cccc(F)c3)no2)c2cccnc12 | 8.4%[15.4 µM] | 3.0 | . | -2.1 | . | 2.1
CCN(CC)C(=O)[C@H]1CC(CC(=O)NC(C)(C)C)C(=O)N2CCc3c([nH]c4ccccc34)[C@]12C (some centres not stated) | . | 0.9 | 3.1% | . | -1.1% | 1.0
COc1cccc(CNC(=O)C2CCCN(c3ncnc4onc(-c5ccc(F)cc5)c34)C2)c1 (configuration not stated) | . | -7.9 | . | . | -5.8% | 1.0
CCOc1nc(NC(=O)NS(=O)(=O)Oc2ccc(Cl)cc2)nc(-c2ccccc2)n1 | . | 2.4 | . | . | -0.6% | 4.3
O=C(/C=C/c1cccs1)NC1CCCC1 | ? | -9.9 | 5.2% | 6.6 | . | 0.0
COc1ccc(C2=NOC(C(=O)N(C)Cc3ccccc3)C2)cc1 (configuration not stated) | -53.2%[inhibitor] | 3.4 | 2.0% | 2.3 | . | -0.6
CC1=[N+](CC(=O)c2ccccc2)CCn2cccc21 | -4.4% | -1.5 | 5.7% | -6.8 | . | 3.6
CN(C)S(=O)(=O)c1cccc(C(=O)Nc2ccccc2Cl)c1 | -43.0%[inhibitor] | 42.5 | 5.8% | 1.6 | 0.2% | 0.6
COC(=O)[C@H](Cc1ccccc1)NC(=O)Cn1cnc2c(NCc3ccccc3)ncnc21 | . | 10.0 | -2.7% | . | 0.1% | -0.1
COC(=O)CSc1ncnc2c1sc1nc3c(cc12)COC(C)(C)C3 | -29.7%[15.4 µM] | -7.4 | 3.3% | 4.5 | . | -0.2
Cc1ccc(N)c2c1OCCC2=O | ? | -6.2 | 12.4% | 6.9 | -3.0% | 0.7
CCN1CCN(c2cc(C)c3cc(NC(=O)c4cccnc4Cl)ccc3n2)CC1 | 2.9% | 4.2 | 9.3% | 4.6 | -14.1% | -0.1
C/C(=N\NC(=O)c1ccc(O)cc1)c1ccc2c(c1)OCCO2 | 1.8% | -11.2 | 0.0% | . | -4.2% | 2.4
Cc1cc2cc(CNC(=O)Cc3ccc([N+](=O)[O-])cc3)ccc2n1C | 18.4%[15.4 µM] | -20.7 | . | -18.8 | . | 0.6
Cc1nn(CC(=O)Nc2ccc(Cl)cc2Cl)c(=O)c2ccccc12 | 23.2% | -0.8 | 3.8% | -0.3 | -2.3% | 0.8
CCC1=NN2C(=N)/C(=C\c3cccn3-c3ccc(OC)cc3)C(=O)N=C2S1 | -21.3% | -11.6 | ? | 0.6 | 0.4% | 2.3
COc1ccc(CCNC(=O)CSc2nc3ccccc3o2)cc1 | 0.0% | -1.1 | -5.4% | 2.7 | -0.6% | 5.8
C[C@H]1CN([C@@H](C)CO)C(=O)c2cc(-c3ccccc3F)cnc2O[C@@H]1CN(C)C(=O)NC1CCCCC1 | ? | -12.4 | . | . | -1.8% | -0.5

Record cards, as listed above.
CCN1CCN(c2cc(C)c3cc(NC(=O)c4cccnc4Cl)ccc3n2)CC1 across the screens: gsp agonist: 2.9%; TRPML1 inh: 4.2; gsp antag: 9.3%; Menin MLL FP FL: 4.6; ClpP mod: -14.1%; TRPML1 ag: -0.1
C[C@H]1CN([C@@H](C)CO)C(=O)c2cc(-c3ccccc3F)cnc2O[C@@H]1CN(C)C(=O)NC1CCCCC1 across the screens: gsp agonist: ?; TRPML1 inh: -12.4; gsp antag: .; Menin MLL FP FL: .; ClpP mod: -1.8%; TRPML1 ag: -0.5

Additional entries.
SMILES | gsp agonist | TRPML1 inh | gsp antag | Menin MLL FP FL | ClpP mod | TRPML1 ag
CC(c1ccccc1)n1cc2c(c1-c1ccccc1Br)c(=O)n(C)c(=O)n2C (configuration not stated) | . | 63.8 | . | . | ? | 2.0
CC1CCN(S(=O)(=O)c2ccc(NC(=O)CN3CCOCC3)cc2)CC1 | 16.1% | 6.9 | 1.7% | 5.3 | -0.4% | 0.3
Cc1c(NC(=O)c2ccc(Cl)c(S(=O)(=O)N3CCCCC3)c2)c(=O)n(-c2ccccc2)n1C | -32.2% | 5.3 | -2.1% | -1.3 | 0.2% | 1.1
CCCCCCn1c(CN2CCC(C)CC2)nc2c1c(=O)n(C)c(=O)n2C | -10.7% | 17.1 | -8.6% | 4.1 | 0.7% | 0.5
O=C(CSc1nc2ccccc2c(=O)n1CC1CCCO1)N1CCN(c2ccccc2)CC1 (configuration not stated) | 7.0% | 0.7 | -19.1% | . | 1.5% | 1.7
O=C(Nc1ccccc1)c1cc2ccccc2c(=O)s1 | 18.0% | 1.1 | -24.7% | 0.0 | -1.9% | -0.2
COc1ccc(Nc2ncnc3sccc23)cc1OC | -8.7% | -5.6 | 4.4% | -6.3 | . | 0.9
S=c1[nH]nc(CCc2ccccc2)n1-c1ccc(Cl)cc1 | 5.1% | 10.5 | -8.4% | -1.1 | . | 1.9
COc1ccccc1CN1CC(C(=O)N2CCOCC2)CCC1=O (configuration not stated) | ? | -8.3 | 12.8% | . | 1.6% | -0.4
O=C(O)CC(NC(=O)C12CC3CC(CC(C3)C1)C2)c1ccc(F)cc1 (configuration not stated) | ? | . | -6.4% | -10.5 | -0.3% | .
CN1OC[C@@H]2C(=O)N3CCc4c([nH]c5ccccc45)[C@@H]3C[C@@H]21 | -1.6% | -3.0 | . | . | 4.8% | 6.5
COC(=O)Cc1c(O)ccn(CCc2ccc(S(N)(=O)=O)cc2)c1=O | -2.7% | -10.1 | 9.4% | -21.8 | -4.0% | 0.9
CC(C)OC(=O)N(C)C[C@@H]1OCc2cnnn2CCCC(=O)N([C@@H](C)CO)C[C@@H]1C | -2.2% | -18.7 | . | . | -3.1% | -0.4
CCC(=O)N1CCN(c2cc(N3CCN(C)CC3)c(F)cc2[N+](=O)[O-])CC1 | -12.4% | -4.9 | 5.9% | . | 1.7% | 0.1
O=C1CC(SCCc2nc3ccccc3[nH]2)C(=O)N1c1ccc(Cl)cc1 (configuration not stated) | -13.6% | 6.8 | -6.6% | 2.8 | -7.7% | 5.7
O=c1c2[nH]c3ccccc3c2nc(SCc2ccccc2F)n1-c1ccc(F)cc1 | . | 3.0 | . | . | -3.6% | 0.9
CN=C1SC(CC(=O)Nc2ccccc2F)C(=O)N1/N=C/c1ccc(O)c(OC)c1 (configuration not stated) | 16.3% | 41.4 | 3.4% | -3.1 | -3.7% | -0.2
COc1cc(F)cc(-c2ccc3c(c2)c(-c2cccs2)c(-c2cc(OC)cc(OC)c2)n3C)c1 | . | 0.3 | 6.0% | . | 5.0% | -0.1
CC(=O)C1C(c2ccc(O)cc2)NC(=O)NC1(O)C(F)(F)F (configuration not stated) | ? | 0.8 | 2.8% | 2.7 | -1.4% | -0.4
CCOC(=O)N1CCN(Cc2nc(-c3ccccc3)no2)CC1 | -17.9% | -9.9 | -4.3% | 0.3 | 0.3% | 0.4
CSc1nc2ccccc2n1CC(=O)Nc1ccc(C)c(C)c1 | -11.0% | 10.6 | 5.9% | 4.1 | -14.4% | 0.9
COc1ccc(N2CCN(C(=O)CN3c4cccc5cccc(c45)S3(=O)=O)CC2)cc1 | -11.8% | 11.9 | -17.2% | . | -4.7% | 0.8
CCCc1[nH]n(-c2nc3ccccc3s2)c(=O)c1C=NCCCOC | -6.0% | . | -16.8% | -4.2 | 0.6% | .
O=C1/C(=C\c2cccs2)Sc2ccc3ccccc3c21 | 9.0%[15.4 µM] | 4.6 | 15.5% | ? | . | 1.4
COc1cc(NC(=O)c2ccc(-c3cnn(C)c3)c3ccoc23)cc(OC)c1OC | . | 43.0 | . | . | 4.5% | -0.8

Continuation.
SMILES | gsp agonist | TRPML1 inh | gsp antag | Menin MLL FP FL | ClpP mod | TRPML1 ag
COCCSc1ccccc1C(=O)NCc1ccco1 | 6.1% | -8.3 | 2.4% | -0.2 | -0.7% | 0.7
COc1ccc(N(CC(=O)NC(C)C)S(=O)(=O)c2ccc(NC(C)=O)cc2)cc1 | 11.6% | 9.2 | 2.7% | -4.2 | 1.4% | -0.2
Cc1cc(C)cc(N(CC(=O)NCc2ccco2)C(=O)CCC(=O)Nc2ccccn2)c1 | -9.5% | 23.5 | -1.2% | 4.9 | -0.4% | -0.6
Cc1nnc(NC(=O)CSCc2cc(=O)c3ccccc3[nH]2)s1 | . | -12.5 | . | . | 0.2% | 1.4
O=c1oc2ccc3ccccc3c2cc1-c1nnc(Nc2ccccc2)s1 | . | -13.7 | . | . | -2.9% | 1.3
Cc1ccc(C(=O)COC(=O)c2nc(Cl)ccc2Cl)cc1 | ? | -2.5 | -1.0% | . | . | -1.2
CCN(CC)S(=O)(=O)c1ccc(C(=O)OCC(=O)Nc2ccc(-c3nc4ccc(C)cc4s3)cc2)cc1 | 13.3% | 11.0 | -6.6% | 6.7 | ? | 0.0
COc1cc(C(=O)N/N=C/c2cccc(Oc3ccccc3)c2)ccc1O | 19.4% | 11.9 | -20.3% | 1.3 | -0.8% | 0.0
C=CCn1c(=O)[nH]c2cc(C(=O)N3CCN(c4cc(C)ccc4C)CC3)ccc2c1=O | 4.6% | 9.7 | 1.8% | 1.8 | 0.0% | 0.3

Molecules listed so far that have a nitro group on carbon (two):
SMILES | gsp agonist | TRPML1 inh | gsp antag | Menin MLL FP FL | ClpP mod | TRPML1 ag
Cc1cc2cc(CNC(=O)Cc3ccc([N+](=O)[O-])cc3)ccc2n1C | 18.4%[15.4 µM] | -20.7 | . | -18.8 | . | 0.6
CCC(=O)N1CCN(c2cc(N3CCN(C)CC3)c(F)cc2[N+](=O)[O-])CC1 | -12.4% | -4.9 | 5.9% | . | 1.7% | 0.1

Assay outcomes (PubChem BioAssay)
